# Source: PubChem BioAssay
# Six1-Eya2 inh: blocks human Six1 binding to Eya2; Q15475+O00167; 360,000 tested, 0.56% active; AlphaScreen GST-Six1/His-Eya2 binding, biochemical; active compounds read low; control for the full effect not named in the record; activity change, % (no concentration beside the values); in the data active = activity change below about -65%; inconclusive = about -30% to -65%; inactive = above about -30%; note: % is set by controls: 0 for no effect and ±100 for the full control effect
#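 AlphaScreen with GST-Six1 and His-Eya2 (5X mix: 250 nM and 500 nM), glutathione donor and nickel acceptor beads; buffer 50 mM Tris pH 8.0, 300 mM NaCl, 1 mM TCEP; 1 h at 37 C in the dark.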
# PINK1 modulator: modulators of PINK1 expression; PINK1 immunofluorescence, high-content cytometry, 24 h; Potency, µM (highest dose often 76.6 µM), for inactives: top-dose activation (PINK1 increase), actives largely listed as activators; 410,000 tested, 0.2% active; AID 624263; active = well fitted activation curve with a large enough effect; inconclusive = small, poorly fitted or top-dose-only effect; inactive = flat fitted curve, though single readings scatter; cell line not stated here;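 note: potency is the fitted concentration of half-maximal effect; % of control where 0% means no effect; nearly all actives have a fitted effect of over 65% in size; a mitochondrial uncoupler was the plate control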
#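 Stable cell line treated 24 h with compounds at 5 concentrations (CCCP controls), then fixed and immunostained for PINK1 plus nuclear and cell stains; PINK1 immunofluorescence quantified by laser-scanning microplate cytometry.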
# CtBP-E1A inh: blocks the CtBP interaction with E1A. AlphaScreen GST-E1A/His-CtBP binding, 1536-well; active compounds read low; control for the full effect not named in the record. activity change, % (concentration not given with the values). 340,000 tested, 0.49% active. AID 651724; in the data active means activity change below about -65%; inconclusive means about -30% to -65%; inactive means above about -30%; note: % is set by controls: 0 for no effect and ±100 for the full control effect
#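 AlphaScreen with 125 nM GST-E1A and 125 nM His-CtBP (5X stocks) in Tris pH 8.0, 300 mM NaCl, BSA, Tween 20, TCEP. Compounds preincubated 2 h at 37 deg C, then glutathione donor/nickel acceptor beads added for 1 h at 37 deg C in dark.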
# D2 agonist: agonists of human D2 dopamine receptor (beta-arrestin); P14416; DiscoveRx PathHunter D2 beta-arrestin, luminescence, 90 min; 100% = 57 uM dopamine signal; 360,000 tested, 0.084% active; activation, % (test concentration not listed); in the data active = activation above about 40%; inconclusive = about 15% to 40%; inactive = below about 15%; note: compound concentration not given in the record; the text of the record calls up to 30% inactive
# Target sequence (P14416 whole entry, looked up): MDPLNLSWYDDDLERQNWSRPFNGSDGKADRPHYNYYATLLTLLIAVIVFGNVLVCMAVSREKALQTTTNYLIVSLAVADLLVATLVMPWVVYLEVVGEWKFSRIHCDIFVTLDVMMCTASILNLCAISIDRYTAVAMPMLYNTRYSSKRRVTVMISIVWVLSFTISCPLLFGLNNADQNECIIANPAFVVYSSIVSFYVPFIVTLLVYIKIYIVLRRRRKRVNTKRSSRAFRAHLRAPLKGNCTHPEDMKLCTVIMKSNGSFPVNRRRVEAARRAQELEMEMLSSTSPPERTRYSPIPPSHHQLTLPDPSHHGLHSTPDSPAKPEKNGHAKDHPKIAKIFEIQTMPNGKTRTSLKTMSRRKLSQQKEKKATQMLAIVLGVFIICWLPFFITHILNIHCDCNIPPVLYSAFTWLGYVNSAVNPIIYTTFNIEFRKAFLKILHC
#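 Agonist mode: compounds alone added to overnight-plated D2 PathHunter cells for 90 min at 37 C, with 57 uM final dopamine (EC100) defining full response. Beta-arrestin recruitment detected by chemiluminescent reagent, read after 1 h at ambient temperature.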
# D2 PAM: human D2 receptor positive allosteric modulation; DiscoveRx D2 beta-arrestin cells, luminescence, 90 min; 100% = 57 uM dopamine signal; potentiation, % (test concentration not listed); 360,000 tested, 0.23% active; AID 624464; P14416; active = potentiation of 50% or more; inconclusive = 30% to 50%; inactive = 30% or less;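 note: compound concentration not given in the record; tested on top of an EC20 dose of dopamine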
#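 D2 cells co-treated with compound plus 50 nM dopamine (EC20) for 90 min at 37 deg C to detect potentiation. Beta-arrestin recruitment was read as enzyme-fragment luminescence after 1 h at ambient temperature. Full response was set by 57 uM dopamine.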
# TRPML1 agonist: activates the human TRPML1 channel; 410,000 tested, 0.12% active; Q9GZU1; AID 624414; TRPML1-expressing cells, Ca2+ dye fluorescence, FDSS; host cell line not named in the record; reference of the full effect not given here; activation, % (no concentration beside the values); in the data active = activation above about 50%; inconclusive = about 30% to 50%; inactive = below about 30%; note: 0% is about no effect; the text of the record puts the active cut at 80%
# Target sequence (Q9GZU1 whole entry, looked up): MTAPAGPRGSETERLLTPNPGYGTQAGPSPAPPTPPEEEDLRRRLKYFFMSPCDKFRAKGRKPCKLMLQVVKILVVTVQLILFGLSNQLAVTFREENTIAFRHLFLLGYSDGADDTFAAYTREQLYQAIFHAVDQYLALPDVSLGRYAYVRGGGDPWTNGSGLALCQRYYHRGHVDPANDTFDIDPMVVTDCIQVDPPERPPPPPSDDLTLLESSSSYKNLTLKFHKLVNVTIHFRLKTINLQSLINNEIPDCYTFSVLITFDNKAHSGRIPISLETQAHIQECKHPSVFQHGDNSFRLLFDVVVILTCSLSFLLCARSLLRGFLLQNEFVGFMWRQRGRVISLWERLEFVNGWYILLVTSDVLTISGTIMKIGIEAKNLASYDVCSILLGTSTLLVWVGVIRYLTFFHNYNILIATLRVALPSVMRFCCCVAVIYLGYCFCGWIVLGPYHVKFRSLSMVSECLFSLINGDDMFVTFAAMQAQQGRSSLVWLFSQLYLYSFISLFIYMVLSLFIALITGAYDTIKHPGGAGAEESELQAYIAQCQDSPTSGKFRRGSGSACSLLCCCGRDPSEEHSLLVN
#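 TRPML1-DL cells, Tet-induced overnight (~16 h, 37 degrees C), loaded 45-90 min at room temperature with Ca8 no-wash calcium dye plus quencher. FDSS fluorescence: 10 s baseline, compound pin-transfer, 110 s agonist read, then EC80 54-4 (4uM final) and 110 s antagonist read.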
# * marks the source's active call; other numbers are inactive results; ? = inconclusive; . = not tested or not shown; & = joins results of further samples; [ ] = remark or other dose.
no.	Structure	TRPML1 agonist	D2 PAM	PINK1 modulator
1	CCOc1ccc(/C=C/c2nc(C#N)c(NCCCOC)o2)cc1	-0.5	-7	4.2%
2	Cn1nccc1C(=O)Nc1ccc(OC(=O)c2ccnn2C)cc1	0.2	2	-0.2%[38.3 µM]
3	NC(=O)c1ccc(C2SCC(=O)N2CCc2ccccc2)cc1 (stereo not drawn)	-0.6	-6	-2.9%
4	Cc1cc(S(=O)(=O)N2CCN(CC(=O)N(C)Cc3ccccc3)CC2)ccc1Br	-0.1	16	-0.7%
5	O=C(NCc1ccccc1)c1cc(C2CCCN(C(=O)CCc3ccccc3)C2)on1 (stereo not drawn)	-0.5	-1	0.7%
6	CC(=O)C[C@H](O)CC(=O)[C@H]1OC(=O)CCCCC/C=C/Cc2ccccc21	0.3	-6	-0.3%
7	CCCN(CC(=O)Nc1ccccc1C)C(=O)c1ccc(-c2ccc([N+](=O)[O-])cc2)o1	1.0	-3	3.0%
8	COc1ccc(NC(=O)N(C)C[C@H]2OCc3cnnn3CCCC(=O)N([C@@H](C)CO)C[C@H]2C)c(OC)c1	-0.5	-7	3.3%
9	CC(=O)c1ccc(NC(=S)N2CCN(S(=O)(=O)c3ccc(F)cc3)CC2)cc1	1.6	15	2.2%
10	Cc1ccc(C(=O)NNC(=O)c2ccncc2)cc1[N+](=O)[O-]	-0.8	-9	3.6%
11	CCOCCCNC(=O)Cn1cnc2c(cnn2-c2ccc(C)c(C)c2)c1=O	0.2	1	4.6%
12	COc1ccc(-c2nc(N)n(C(=O)c3ccco3)n2)cc1	-0.9	1	-1.3%

no.	Six1-Eya2 inh	CtBP-E1A inh	D2 agonist
1	18	11	-1.4
2	1	26	3.0
3	10	-15	-2.7
4	2	5	2.6
5	4	6	3.9
6	3	-20	-3.4
7	-10	-26	-2.8
8	-7	-2	-5.6
9	-7	-2	-3.9
10	-1	.	-5.5
11	4	2	10
12	-4	-10	-2.7

# Next section:
no.	Structure	TRPML1 agonist	D2 PAM	PINK1 modulator
13	C=CC[C@@H](CC(=O)N[C@@H](CO)Cc1ccccc1)C(=O)N[C@H](COC(=O)[C@@H](CC=C)CC(=O)OC(C)(C)C)Cc1c[nH]c2ccccc12	0.4	.	6.6%
14	C=CCn1c(SCC(=O)NCC2CCCO2)nc2c([nH]c3ccccc32)c1=O (stereo not drawn)	0.3	5	8.5%
15	COc1ccc(OC)c(NC(=O)CSc2nncc(=O)n2N)c1	-0.1	-9	2.2%
16	COC(=O)c1cc2c(ccn2-c2ccc(F)cc2)n1Cc1ccc(OC(C)=O)cc1	0.2	8	16%
17	Cc1ccc(-c2nnc(Nc3ccccc3)o2)cc1	0.1	-13	.
18	CC(=O)c1ccc(OCC(=O)N2CCN(S(=O)(=O)c3ccc(Br)s3)CC2)cc1	1.3	-2	-3.2%
19	Cc1ccc(C)c(C(=O)COC(=O)c2cc([N+](=O)[O-])ccc2NCCO)c1	-0.7	-7	4.7%
20	CCc1ccc(N2C(=O)C3C4C=CC(CC4)C3C2=O)cc1 (stereo not drawn)	-1.0	0	0.4%
21	Cc1ccn(S(=O)(=O)c2ccc3oc(=O)ccc3c2)n1	-0.6	0	6.0%
22	CC1(C)CC(Nc2ccc(C(F)(F)F)cc2[N+](=O)[O-])CC(C)(C)N1	0.6	-13	-0.4%
23	COC(=O)CCc1c(C)c(C#N)c2nc3ccccc3n2c1N1CCCC1	2.0	0	7.5%[38.3 µM]
24	Cc1ccc(Cl)cc1NC(=O)COC(=O)CN1C(=O)C2CCCCC2C1=O (stereo not drawn)	-0.6	-3	0.2%

no.	Six1-Eya2 inh	CtBP-E1A inh	D2 agonist
13	-10	-6	0.5
14	-3	0	-0.6
15	12	-7	-4.1
16	-13	-14	-2.1
17	1	12	1.9
18	-1	-4	0.3
19	-16	-2	-3.5
20	3	.	4.4
21	-4	4	-0.2
22	-5	.	-0.6
23	10	6	-2.4
24	2	6	4.0

# Continued:
no.	Structure	TRPML1 agonist	D2 PAM	PINK1 modulator
25	CCCc1nnc(SCC(=O)Nc2ccc(OCC)cc2)n1N	-0.5	4	1.1%
26	CCCCC(=O)Nc1nnn(CCC)n1	0.7	5	?
27	CCOc1ccc(S(=O)(=O)N2CCC(C(=O)NC3CC3)CC2)cc1Cl	-1.1	-2	0.1%
28	CC(Sc1nncn1C)C(=O)Nc1ccc(S(N)(=O)=O)cc1 (stereo not drawn)	.	-7	0.0%
29	CC(C)(C)C1CCC(N2CCN(c3ccccc3)CC2)CC1 (stereo not drawn)	0.5	-48	15%
30	COC(=O)CSc1nnc(CSc2nc(C)cc(C)n2)n1Cc1ccco1	-0.5	-1	3.7%
31	Cc1cccc(NC(=O)Nc2ccccc2)n1	1.6	-7	0.0%
32	CCOC(=O)N1CCN(S(=O)(=O)c2c[nH]c(C(=O)OC)c2)CC1	0.5	4	-0.1%
33	CCN(c1ccc(OC)cc1)S(=O)(=O)c1csc(C(N)=O)c1	-0.5	-6	2.1%
34	COC(=O)c1ccc(COC(=O)CNC(=O)C2CCCCC2)cc1	2.8	-5	-0.9%
35	C=CCNC(=O)c1ccccc1NC(=O)c1ccc(Cl)c(S(=O)(=O)Nc2cc(C)ccc2C)c1	2.1	2	6.4%[38.3 µM]
36	COCc1ccc(CN2CCCC(C(=O)Nc3ccc(-c4cscn4)cc3)C2)o1 (stereo not drawn)	-0.2	-16	-1.7%

no.	Six1-Eya2 inh	CtBP-E1A inh	D2 agonist
25	-1	-1	-2.5
26	-1	0	-2.6
27	4	3	-1.4
28	2	5	-2.7
29	-2	.	1.6
30	-1	-2	-0.2
31	0	1	-2.7
32	4	8	6.9
33	-4	.	-0.4
34	-3	-10	1.8
35	2	-5	1.1
36	-3	-6	-2.0

# Continued.
no.	Structure	TRPML1 agonist	D2 PAM	PINK1 modulator
37	COc1cc(NC(=O)c2cccnc2Sc2ccc(C)c(C)c2)cc(OC)c1OC	0.5	-8	0.4%
38	CN=C1SC(CC(=O)Nc2ccc(F)cc2F)C(=O)N1/N=C(\C)c1cccc(OCC(=O)O)c1 (stereo not drawn)	-0.2	2	3.4%
39	COc1cccc(C(=O)C2CCCN(Cc3cccc(OCCO)c3)C2)c1 (stereo not drawn)	0.1	-23	3.2%
40	COc1cc2c(cc1OC)C(C)N(C(=O)c1sccc1C)CC2 (stereo not drawn)	0.4	-6	3.1%
41	Cc1ccc(-c2cccc(C3CC=CC4C3C(=O)N(Cc3ccccc3)C4c3ccc(C(F)(F)F)cc3)c2)cc1 (stereo not drawn)	-0.3&0.4	-3	?
42	COc1cccc(NC(=O)C(C)N2C(=O)c3ccccc3S2(=O)=O)c1 (stereo not drawn)	-0.8	12	?
43	C[C@H](O)[C@@H]1C(=O)N2CCc3ccc(N4CCOCC4)cc3[C@@H]2C[C@@H]1N(C)S(=O)(=O)c1ccccc1	1.9	-6	1.6%
44	O=C(NC1CC1)c1cc(Cl)ccc1[N+](=O)[O-]	-0.9	0	9.9%[38.3 µM]
45	CC(=O)Oc1ccc(C(=O)N2c3ccccc3NC(=O)C2C)cc1 (stereo not drawn)	2.2	-6	-3.8%
46	CC1CCN(C(=O)c2ccccc2NC(=O)c2cccc(S(=O)(=O)N3CCOCC3)c2)CC1	-0.5	-12	1.2%
47	O=S(=O)(c1ccc(Cl)cc1)N(Cc1ccccn1)Cc1ccccn1	0.8	-7	-0.9%
48	COc1ccc(OCCCc2c(C)n[nH]c2C)cc1	-0.7	1	-1.1%

no.	Six1-Eya2 inh	CtBP-E1A inh	D2 agonist
37	-4	6	3.2
38	-2	-1	-0.9
39	-2	-9	3.7
40	-3	1	3.9
41	-9	0	-3.5
42	-2	2	-2.4
43	4	0	-1.7
44	7	4	-5.1
45	-6	-9	4.1
46	7	5	-2.8
47	1	7	-3.5
48	0	-1	0.8

# Remaining list, next part:
no.	Structure	TRPML1 agonist	D2 PAM	PINK1 modulator
49	C=CCNC(=S)N/N=C/c1ccc(N(CC)Cc2ccccc2)cc1	3.5	-6	0.0%
50	Cc1ccc2c(c1)N(CC(=O)Nc1ccc3c(c1)OCCO3)C(=O)CO2	0.1	-9	?
51	Cc1cc(NC(=O)C(=O)NCCN2CCN(C(=O)c3cccs3)CC2)ccc1Br	-0.4	-21	10%
52	C=CCc1cccc(CNc2nc3ccccc3n2C(C)C)c1O	0.3	-20	8.3%[38.3 µM]
53	CCOC(=O)c1sc(NC(=O)CN2C(=O)NC3(CCCCCCC3)C2=O)c(C(=O)OCC)c1C	-0.5	-15	5.2%
54	COc1ccc(/C=C/C(=O)O)cc1S(=O)(=O)N1CCC(Cc2ccccc2)CC1	.	-4	0.7%
55	Cc1cccc(C(=O)NC(=S)NNC(=O)COc2c(C)cccc2C)c1	26	-8	4.1%
56	CCN1CCN(S(=O)(=O)c2ccc3c4c(cccc24)C(=O)N3CC)CC1	2.4	-2	1.8%
57	CC1CCCC(NC(=O)CCN2C(=O)COc3ccccc32)C1C (stereo not drawn)	-0.9	-35	0.3%
58	COc1ccc(Cc2nnc(N)s2)cc1OC	-0.8	4	-1.6%
59	CC(C)C1(C(C)C)OC(=O)c2ccccc21	-0.1	-2	0.9%
60	COCc1cc(=O)[nH]c(/N=C(\N)Nc2ccc(Oc3ccccc3)cc2)n1	0.3	9	2.8%

no.	Six1-Eya2 inh	CtBP-E1A inh	D2 agonist
49	-15	-17	-9.1
50	-2	4	-0.2
51	0	0	0.4
52	-5	-11	2.5
53	3	.	-6.2
54	-10	-9	-3.5
55	1	-1	2.3
56	-7	-4	-5.5
57	2	7	-2.8
58	2	2	-0.8
59	9	2	-3.8
60	-12	4	0.5

# Other compounds:
no.	Structure	TRPML1 agonist	D2 PAM	PINK1 modulator
61	COc1cnn(-c2ccc(C)cc2)c(=O)c1Br	0.0	1	0.8%
62	COc1ccc(OC)c(NC(=O)CCCN2C(=S)NC(C)(C)CC2C)c1 (stereo not drawn)	0.5	-22	1.6%
63	Cc1ccnc2nc(C(=O)OC(C)C(=O)NCc3ccccc3)nn12 (stereo not drawn)	2.8	0	1.0%
64	Cc1cc(C)nc(NC(=NCCc2c[nH]c3ccccc23)NC(=O)Nc2ccc(Cl)c(Cl)c2)n1	1.1	-23	7.5%
65	O=C(Nc1cccc(-c2cn3c(n2)SCC3)c1)c1ccc2c(c1)OCO2	-0.4	-21	0.8%

no.	Six1-Eya2 inh	CtBP-E1A inh	D2 agonist
61	8	8	2.1
62	0	8	4.0
63	4	7	-0.5
64	-2	-12	-0.5
65	?	-6	0.3
